Screening results as filed in PubChem BioAssay.
INS promoter inh – TRM-6 insulin promoter activity inhibition. AID 1273. 0.9% of 130,000 active. TRM-6 cells (human fetal islet line), insulin promoter-eGFP reporter, imaging; reporter expression induced with tamoxifen. inhibition, % at 2 µM;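 active means inhibition above the mean plus 3 SD, with well images judged a real hit on visual review, cut at about 60% in these data, passing the limit was not always enough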
HSV augment – HSV replication enhancement | HSV replication augmentation in cells, fold increase | maximum fold increase | 0.005% of 220,000 active;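 active means peak rise of 1.5-fold or more in the series; tested in PC3 cells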;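 further: first round at 10 µM; read as green reporter fluorescence; hits show the peak of a series up to 25 µM; 1 = signal of infected wells without compound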
PKD1 inh – inhibitors of human PKD1 kinase; Q15139; PKD1 kinase fluorescence polarization assay; inhibition, %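 (about 10 µM by stock and volumes)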; 0.056% of 200,000 active;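 active means inhibition of 50% or more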;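 further: controls were vehicle for no effect and a reference inhibitor for full effect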
RGS16-Gao HTS – RGS16-Galphao interaction regulator (human) | O15492+P09471 | bead-based flow cytometry RGS16-Galphao binding, fluorescence; actives lie on both sides | binding response (% of control), % at 10 µM | 0.38% of 220,000 active | AID 1441;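 active means below 25% or above 175%, edge rows of some plates excepted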;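 further: Galphao activated by GDP with aluminum fluoride before binding; 100% = wells without compound and 0% = beads without RGS; some results beyond the cut were filed as inactive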
Target sequence (O15492 whole entry, looked up): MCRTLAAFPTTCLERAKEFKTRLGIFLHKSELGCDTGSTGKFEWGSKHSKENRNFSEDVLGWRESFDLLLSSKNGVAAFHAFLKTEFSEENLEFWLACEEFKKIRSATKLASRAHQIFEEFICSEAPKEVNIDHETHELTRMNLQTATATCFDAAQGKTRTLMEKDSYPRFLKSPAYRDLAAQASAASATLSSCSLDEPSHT
Target sequence (P09471 whole entry, looked up): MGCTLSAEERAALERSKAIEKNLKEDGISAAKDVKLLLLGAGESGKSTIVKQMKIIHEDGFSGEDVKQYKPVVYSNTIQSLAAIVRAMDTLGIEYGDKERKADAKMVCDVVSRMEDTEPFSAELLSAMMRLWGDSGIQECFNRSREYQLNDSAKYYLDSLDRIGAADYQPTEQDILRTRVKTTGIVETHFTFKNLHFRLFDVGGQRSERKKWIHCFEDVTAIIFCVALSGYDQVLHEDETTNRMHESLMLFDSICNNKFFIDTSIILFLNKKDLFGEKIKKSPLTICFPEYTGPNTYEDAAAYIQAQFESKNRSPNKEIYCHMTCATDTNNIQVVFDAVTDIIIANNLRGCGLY
GALR2 agonist – agonists of human galanin receptor 2 (GALR2). O43603. GALR2-expressing cells, agonist activation read-out. activation, %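 (tested at 5 µM)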. 0.48% of 140,000 active. AID 803;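 active means above mean plus 3 SD of all compounds, about 5% in these data, not always enough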;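 further: 0% = vehicle buffer wells and 100% = reference agonist at full effect; tested in CHO reporter cells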
Target sequence (O43603 whole entry, looked up): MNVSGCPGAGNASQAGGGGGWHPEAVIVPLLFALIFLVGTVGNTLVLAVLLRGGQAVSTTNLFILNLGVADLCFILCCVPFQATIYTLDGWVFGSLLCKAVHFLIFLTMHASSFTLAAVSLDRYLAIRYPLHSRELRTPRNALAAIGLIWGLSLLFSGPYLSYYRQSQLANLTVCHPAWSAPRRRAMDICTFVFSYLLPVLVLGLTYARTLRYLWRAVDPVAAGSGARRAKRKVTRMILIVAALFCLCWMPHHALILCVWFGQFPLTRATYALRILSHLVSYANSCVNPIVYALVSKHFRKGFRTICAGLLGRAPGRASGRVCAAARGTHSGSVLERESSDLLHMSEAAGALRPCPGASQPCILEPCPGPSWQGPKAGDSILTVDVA
INS promoter inh cell count – recorded beside INS promoter inh, whose call it bears; normalized cell count, %; measured here: cell count, toxicity; reference of the scale not given here;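 cells exposed to compound for 48 h; stained nuclei by imaging scaled within each plate; lower means fewer cells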
HSV augment primary fold – also measured in HSV augment; calls as there; fold increase; compound at 10 µM; measured here: primary screen fold increase 10 uM; tested in PC3 cells;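 GFP signal in the first replicate; 1 = infected wells without compound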
* = called active by the depositor; i = inactive; / = no result given; & = joins results of further samples; [ ] = remark or other dose.

SMILES | INS promoter inh | INS promoter inh cell count | HSV augment | HSV augment primary fold | PKD1 inh | RGS16-Gao HTS | GALR2 agonist
CC(C)NC(=O)CCCC(=O)NC(C)C | 21 | 107 | i | 0.87 | -7 | 105 | -0.3
C=CCn1c(N)c(C(=O)NC2CCCCC2)sc1=S | 10 | 91 | i | 0.92 | 2 | 116 | 0.3
COc1ccccc1/C=C/C(=O)OCC(=O)c1c(N)n(C)c(=O)n(C)c1=O | -7 | 212 | i | 0.9 | 2 | 103 | -0.6
Cc1[nH]c(=S)c(C#N)c(C)c1C(=O)Nc1ccccc1 | 21 | 51 | i | 1.1 | 6 | 91 | -2.1
O=S(=O)(NCC1CCCO1)c1ccc(Cl)c(C(F)(F)F)c1 (configuration not stated) | -224 | 66 | i | 1 | 2 | 104 | -4.3
Cc1nnsc1-c1onc(C)c1C(=O)Nc1cc(Cl)cc(Cl)c1 | / | / | i | 0.7 | / | 96 | /
C=CCNC(=S)NNC(=O)CCC(O)CCCCC (configuration not stated) | -20 | 98 | i | 1 | 0 | 113 | -2.4
COC(=O)c1ccc(-c2nc3ccc(C)cc3o2)cc1 | 31 | 118 | i | 0.81 | -6 | 102 | -1.7
C=CCn1c(SCc2ccc(C#N)cc2)nnc1-c1ccc(C)cc1 | -59 | 252 | i | 1 | -3 | 97 | -3.0
O=S(=O)(c1cnc[nH]1)N1CCCCCC1 | / | / | i | 1.2 | -1 | 106 | -0.8
CCOC(=O)C1CCCN(C(=O)c2cnn3c(C(F)(F)F)cc(-c4ccccc4)nc23)C1 (configuration not stated) | -21 | 89 | i | 1 | -2 | 100 | -0.7
COC(=O)c1sc2ncccc2c1OCc1ccc(Cl)cc1 | / | / | i | 1.1 | 1 | 105 | -1.6
CCc1ccc(N2CC(C(=O)N/N=C/c3cccc([N+](=O)[O-])c3)CC2=O)cc1 (configuration not stated) | 30 | 58 | i | 1 | -1 | 99 | 0.8
S=c1[nH]nc(-c2ccccn2)n1/N=C/c1cccc2ccccc12 | 7 | 113 | i | 1.1 | -3 | 93 | -0.6
Cc1[nH]n(C(N)=S)c(=O)c1C(c1ccccc1)C(C#N)C#N (configuration not stated) | -4 | 109 | i | 0.98 | -3 | 88 | -0.7
CCS(=O)(=O)NC(C)C(c1cccs1)N1CCN(C)CC1 (configuration not stated) | / | / | i | 1.2 | -10 | 101 | -4.1
Cc1sc2nc(C3CC3)nc(SCC(=O)NCc3ccco3)c2c1C | 36 | 90 | / | / | -2 | 87 | -0.2
O=C1CNC(=O)/C1=C/c1ccc(Br)cc1 | / | / | i | 0.97 | / | 93 | /
CSC1=N/C(=C/c2ccc(-n3cncn3)cc2)C(=O)N1 | / | / | i | 0.96 | / | 97 | /
C=CCn1c(Cc2ccc(OC)cc2)nnc1SCC(N)=O | 3 | 64 | i | 0.89 | 0 | 98 | -0.2
O=C1CC(c2ccccc2)CC2=C1C=Nc1ccccc1N2 (configuration not stated) | 21 | 93 | i | 0.81 | -7 | 101 | /
CCOC(=O)/C=C1\NC(=O)CS1 | / | / | i | 0.98 | 3 | 94 | -1.2
FC(F)(F)c1cnc(N/N=C/c2ccncc2)c(Cl)c1 | / | / | i | 0.89 | / | 109 | /
COc1ccc(/C=C/c2cc(-c3ccc(C)cc3)o[n+]2C)cc1 | / | / | i | 0.46 | -8 | 105 | -2.4
COc1ccc(C(=O)N/N=c2\oc3ccccc3cc2C(N)=O)cc1 | 0 | 71 | i | 0.95 | -2 | 98 | /
The list continues:
SMILES | INS promoter inh | INS promoter inh cell count | HSV augment | HSV augment primary fold | PKD1 inh | RGS16-Gao HTS | GALR2 agonist
CC1(C)Cc2ccccc2-c2nc3n(c(=O)c21)CCS3 | 7 | 141 | i | 0.94 | 3 | 102 | /
CCCOC(=O)/C(=C\C=C\c1ccco1)NC(=O)c1ccccc1 | -17 | 62 | i | 1 | -4 | 95 | /
CCS(=O)(=O)N1CCC(C(=O)NC2CCCCCCC2)CC1 | -19 | 62 | i | 0.94 | -7 | 101 | -1.8
Cn1c(=O)oc2cc(S(=O)(=O)N3CCCC(C(=O)NCc4cccs4)C3)ccc21 (configuration not stated) | / | / | i | 0.94 | 7 | 103 | -2.1
Nc1c(Cl)c(Cl)nc(C(=O)N/N=C/c2cccnc2)c1Cl | / | / | i | 1.1 | / | 100 | /
COc1cc(C(=O)N/N=C(\c2ccccc2)c2ccccn2)cc(OC)c1OC | / | / | i | 0.79 | 10 | 109 | 0.5
Cn1c(COc2ccc(Cl)cc2)nnc1SCC(=O)Nc1ccc2c(c1)CCC2 | / | / | i | 1 | -9 | 89 | -0.8
Cc1ccc(Nc2nc(N)nc(CSc3nnc(-c4ccncc4)o3)n2)cc1 | 55 | 109 | i | 0.85 | -6 | 102 | -1.2
COc1ccccc1OCC(O)CN1C(=O)NC(C)(C)C1=O (configuration not stated) | / | / | i | 0.86 | 0 | 90 | /
CC1CN(C)C(C)c2c1oc1ccc([N+](=O)[O-])cc21 (configuration not stated) | -57 | 61 | i | 0.9 | -9 | 95 | /
O=C1COc2ccc(N3C(=O)C=CC3=O)cc2N1 | / | / | i | 1.1 | -9 | 93 | /
Cc1oc2ccc(OCc3c(F)cccc3Cl)cc2c1C(=O)O | / | / | i | 0.85 | / | 91 | /
CC(C)S(=O)(=O)c1cnc(N2CCOCC2)nc1N | / | / | i | 0.93 | / | 104 | /
COc1ccc(CNc2ccc([N+](=O)[O-])cc2C)cc1 | / | / | i | 1 | / | 107 | /
CN(C)C(=O)NC(O)C(Cl)Cl (configuration not stated) | 47 | 101 | i | 0.93 | -6 | 91 | 0.1
CC(=NCCc1c(C)[nH]c2ccc(OCc3ccccc3)cc12)C1=C(O)CC(c2ccccc2)CC1=O (configuration not stated) | 0 | 113 | i | 0.88 | -8 | 104 | /
CC(=O)Oc1ccc2oc(/C=C/N(C)C)c([N+](=O)[O-])c2c1 | 28 | 112 | i | 0.91 | -5 | 104 | -2.9
CCOc1cccc(-c2nnc3sc(COc4ccc(C)cc4)nn23)c1 | 11 | 123 | i | 0.93 | 0 | 102 | -0.6
NC(=O)CSC1=Nc2ccccc2C2=NC(c3ccccc3)C(=O)N12 (configuration not stated) | 79* | 127* | i | 0.95 | -3 | 102 | /
CCOC(=O)NC(Nc1sc2c(c1C(=O)OC)CCN(C)C2)(C(F)(F)F)C(F)(F)F | 44 | 86 | i | 1 | -3 | 99 | 0.7
Nc1[nH]c(=O)ncc1F | 33 | 98 | i | 0.85 | 4 | 105&93 | -2.8
NC(=O)c1cnccn1 | 18 | 83 | i | 0.88 | 6 | 64 | -1.2
CN(C)c1ccnc(-n2cccc2/C=N/OCc2cccc(F)c2)c1C#N | -97 | 38 | i | 0.93 | 2 | 93 | -0.3
CSc1ccc(/C=N\NC(=O)CNc2ccc(C)cc2)cc1 | / | / | i | 0.85 | 5 | 99 | -3.5
Cc1cccc(NC(=O)C2CCCC2)c1 | 7 | 98 | i | 0.67 | 1 | 102 | -0.1
Next compounds follow:
SMILES | INS promoter inh | INS promoter inh cell count | HSV augment | HSV augment primary fold | PKD1 inh | RGS16-Gao HTS | GALR2 agonist
COc1ccc(Cn2nnnc2C(c2cc3ccc(OC)cc3[nH]c2=O)N2CCCCCC2)cc1 (configuration not stated) | -16 | 84 | i | 1 | 2 | 96 | 0.7
COC(=O)c1sccc1NC(=O)CN(C)NS(=O)(=O)c1ccc([N+](=O)[O-])cc1 | -7 | 100 | i | 0.98 | -10 | 103 | -0.8
COC(=O)c1ccc(Oc2c(C(F)(F)F)oc3c(CN4CCN(C)CC4)c(O)ccc3c2=O)cc1 | -8 | 55 | i | 0.96 | -10 | 97 | -1.8
O=C(CCCC(=O)N(CC(=O)NC1CCCC1)Cc1ccccc1)Nc1ccccn1 | 7 | 128 | i | 0.99 | -38 | 100 | -2.1
CC(=O)NC(CCS(C)(=O)=O)C(=O)Nc1nccs1 (configuration not stated) | 27 | 147 | i | 1.2 | 0 | 104 | -1.7
CCCCn1nnc(NC(=O)c2cc3ccccc3o2)n1 | 30 | 103 | i | 0.98 | 4 | 426 | -1.1
Cc1ccnn1CC(=O)N/N=C/c1cccs1 | 31 | 74 | i | 1 | 11 | 115 | -2.2
CCOC(=O)c1sc(S(C)(=O)=O)c2c1CCc1conc1-2 | / | / | i | 1.2 | / | 88 | /
COc1ccc(C2NC(=O)NC(O)(C(F)(F)F)C2C(=O)c2ccccc2)cc1OC (configuration not stated) | 17 | 130 | i | 0.96 | -2 | 60 | -2.2
CS(=O)(=O)N1N=C(c2ccc(Cl)cc2)CC1c1cccs1 (configuration not stated) | -183 | 116 | i | 0.89 | -12 | 103 | -1.8
CC(C)[C@H](NC(N)=O)C(=O)Nc1ccc2c(c1)CCC2 | 50 | 114 | i | 0.99 | 4 | 98 | 0.3
COC(=O)C1=C(C)NC(=S)N(C(C)=O)C1c1ccccc1 (configuration not stated) | 77* | 29* | i | 0.99 | -10 | 104 | -0.9
O=C(NCc1ccncc1)C(=O)NCC(c1ccco1)N1CCN(c2ccccc2F)CC1 (configuration not stated) | -38 | 108 | i | 0.98 | -4 | 107 | -0.5
CCc1nc(SCc2ccc(Cl)cc2)n[nH]1 | / | / | i | 1.1 | 2 | 101 | /
N/C(=N\OC(=O)c1ccc2ccccc2c1)c1ccc(Br)cc1 | 28 | 158 | i | 0.92 | -4 | 106 | 0.7
Cc1ccc(C(=O)/C=C/N(C)C)o1 | / | / | i | 0.83 | 0 | 103 | /
CC(=O)Nc1ccc(-c2csc(NNC(=O)c3ccc(C)cc3)n2)cc1 | 0 | 93 | i | 1.1 | 3 | 102 | /
CC(=O)c1cnn(-c2c(Cl)cc(Cl)cc2Cl)c1C | / | / | i | 0.98 | / | 99 | /
COc1ccc(CCNC(=O)COC(=O)c2cc(OC)c(OC)cc2OC)cc1OC | 9 | 94 | i | 0.98 | -4 | 199*[activator] | /
Cc1cnc(C(=O)OCC(=O)Nc2ccc(Cl)cc2Cl)cn1 | 81* | 20* | i | 0.95 | -6 | 104 | 0.3
O=C(/C=C/c1ccco1)NCc1ccccn1 | -20 | 128 | i | 1.1 | -2 | 95 | /

An excerpt of these results, in CSV form:
structure,INS promoter inh,INS promoter inh cell count,HSV augment,HSV augment primary fold,PKD1 inh,RGS16-Gao HTS,GALR2 agonist
COc1ccc(C2NC(=O)NC(O)(C(F)(F)F)C2C(=O)c2ccccc2)cc1OC (configuration not stated),17,130,i,0.96,-2,60,-2.2
CS(=O)(=O)N1N=C(c2ccc(Cl)cc2)CC1c1cccs1 (configuration not stated),-183,116,i,0.89,-12,103,-1.8

An excerpt from above in order of heavy-atom count, high to low:
SMILES | INS promoter inh | INS promoter inh cell count | HSV augment | HSV augment primary fold | PKD1 inh | RGS16-Gao HTS | GALR2 agonist
COc1ccc(Cn2nnnc2C(c2cc3ccc(OC)cc3[nH]c2=O)N2CCCCCC2)cc1 (configuration not stated) | -16 | 84 | i | 1 | 2 | 96 | 0.7
O=C(NCc1ccncc1)C(=O)NCC(c1ccco1)N1CCN(c2ccccc2F)CC1 (configuration not stated) | -38 | 108 | i | 0.98 | -4 | 107 | -0.5
O=C(CCCC(=O)N(CC(=O)NC1CCCC1)Cc1ccccc1)Nc1ccccn1 | 7 | 128 | i | 0.99 | -38 | 100 | -2.1
COc1ccc(C2NC(=O)NC(O)(C(F)(F)F)C2C(=O)c2ccccc2)cc1OC (configuration not stated) | 17 | 130 | i | 0.96 | -2 | 60 | -2.2
COC(=O)c1sccc1NC(=O)CN(C)NS(=O)(=O)c1ccc([N+](=O)[O-])cc1 | -7 | 100 | i | 0.98 | -10 | 103 | -0.8
CC(=O)Nc1ccc(-c2csc(NNC(=O)c3ccc(C)cc3)n2)cc1 | 0 | 93 | i | 1.1 | 3 | 102 | /
N/C(=N\OC(=O)c1ccc2ccccc2c1)c1ccc(Br)cc1 | 28 | 158 | i | 0.92 | -4 | 106 | 0.7
Cc1cnc(C(=O)OCC(=O)Nc2ccc(Cl)cc2Cl)cn1 | 81* | 20* | i | 0.95 | -6 | 104 | 0.3
COC(=O)C1=C(C)NC(=S)N(C(C)=O)C1c1ccccc1 (configuration not stated) | 77* | 29* | i | 0.99 | -10 | 104 | -0.9
CC(C)[C@H](NC(N)=O)C(=O)Nc1ccc2c(c1)CCC2 | 50 | 114 | i | 0.99 | 4 | 98 | 0.3
CC(=O)NC(CCS(C)(=O)=O)C(=O)Nc1nccs1 (configuration not stated) | 27 | 147 | i | 1.2 | 0 | 104 | -1.7
CC(=O)c1cnn(-c2c(Cl)cc(Cl)cc2Cl)c1C | / | / | i | 0.98 | / | 99 | /
O=C(/C=C/c1ccco1)NCc1ccccn1 | -20 | 128 | i | 1.1 | -2 | 95 | /
Cc1ccc(C(=O)/C=C/N(C)C)o1 | / | / | i | 0.83 | 0 | 103 | /
